HNF4A DNA FP: change in binding of human HNF4 alpha to DNA; HNF4a-FITC DNA binding, fluorescence polarization, 1 h; AID 1224865; activity change, % at 10 µM; P41235; 360,000 tested, 0.3% active; in the data active means activity change above about 30%, passing the limit was not always enough;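 further: controls were the assay level and a saturating level of protein; the project sought stronger binding though the title names inhibitors; some compounds called inactive have numbers as strong as hits; positive values seem to mean higher polarization but the record does not say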
Target sequence (P41235 whole entry, looked up): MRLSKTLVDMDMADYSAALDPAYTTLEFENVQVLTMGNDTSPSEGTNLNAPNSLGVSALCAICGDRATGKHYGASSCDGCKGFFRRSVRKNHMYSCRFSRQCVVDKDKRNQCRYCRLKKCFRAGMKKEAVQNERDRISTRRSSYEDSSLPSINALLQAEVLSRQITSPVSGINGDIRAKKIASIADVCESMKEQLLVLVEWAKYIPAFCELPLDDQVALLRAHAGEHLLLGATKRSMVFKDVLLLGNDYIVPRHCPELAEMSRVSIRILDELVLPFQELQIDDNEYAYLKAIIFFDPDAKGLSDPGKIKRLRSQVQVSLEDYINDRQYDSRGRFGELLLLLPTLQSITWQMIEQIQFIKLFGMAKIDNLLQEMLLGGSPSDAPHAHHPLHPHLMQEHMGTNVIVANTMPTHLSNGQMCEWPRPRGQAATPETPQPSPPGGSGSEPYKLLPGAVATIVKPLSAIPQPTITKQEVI
UCH37 inh: human UCH37 deubiquitinating enzyme inhibition; Q9Y5K5; 330,000 tested, 0.33% active; inhibition, % (test concentration not listed); purified proteasome/UCH37, Ub-AMC cleavage fluorescence;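 active means mean of two replicates above 20%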;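 further: 0% = compound-free wells with enzyme and 100% = wells lacking proteasome; stock transfer was 100 nL into about 20 µL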
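Material: human UCH37 enzyme supplied as purified proteasome complex / Amount: 0.15 nM proteasome as dispensed / Buffer or medium: pH 7.4 Tris-HCl (50 mM) with ovalbumin, ATP-MgCl2, DTT / Times: preincubation 30 min, reaction 25 min, room temperature / Technique: AMC fluorescence from Ub-AMC cleavage, excitation 355 nm, emission 460 nm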
rRNA inh HTS: selective bacterial rRNA inhibition in E. coli; E. coli WT GFP vs humanized-ribosome RFP mutants, fluorescence, 24 h; active compounds read low; DMSO median 0, no signal -100; GFP signal change (wild-type ribosome), % (test concentration not listed); 350,000 tested, 1.6% active; AID 720706;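 active means significant combined selectivity score with lowered wild-type GFP, culture density cut under 30%, mutant RFP and density less affected; inactive means any of these conditions unmet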; further: one replicate is shown; some compounds called inactive have numbers as strong as hits
ALR H2O2 inh: blocks human ALR sulfhydryl oxidase activity | P55789 | purified ALR, DTT oxidation, H2O2 HRP-luminol luminescence | inhibition, % (concentration not given with the values) | 290,000 tested, 3.8% active;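 active means mean and each replicate at 75% or more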;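 further: stock transfer was 7.5 nL into about 7.5 µL; 0% = neutral wells and 100% = wells with inactivated enzyme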
Target sequence (P55789 whole entry, looked up): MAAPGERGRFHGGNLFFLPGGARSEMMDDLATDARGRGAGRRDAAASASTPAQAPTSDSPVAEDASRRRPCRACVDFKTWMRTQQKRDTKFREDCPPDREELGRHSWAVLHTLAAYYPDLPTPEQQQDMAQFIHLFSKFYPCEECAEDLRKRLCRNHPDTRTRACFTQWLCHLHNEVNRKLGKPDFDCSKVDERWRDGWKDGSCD
Beta2AR agonist: activates human beta-2 adrenergic receptor causing internalization | Am2.2-beta2AR cells, FAP receptor internalization, flow cytometry; reference of the scale not given here | P07550 | response, % (no concentration beside the values) | 340,000 tested, 0.43% active;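 active means response above a set limit, near 3 SD of response in nonfluorescent compounds, cut at about 42% in these data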;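 further: stock transfer was 100 nL into about 11 µL; a reference agonist was the positive control; negative values mostly stem from fluorescent compounds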
Ecoli growth: E. coli growth inhibition | Escherichia coli growth, OD600, 23 h; active compounds read low | 330,000 tested, 0.21% active | AID 1053175 | OD600 absorbance (no concentration beside the values);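 active means OD600 absorbance below the run mean of sample wells minus 3.6 SD, in any replicate, cut at about 0.56 in these data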;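 further: stock transfer was 300 nL into about 60 µL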
FGF22 binding: shifts melting point of recombinant human FGF22 | Q9HCT0 | recombinant FGF22 thermal shift, SYPRO orange fluorescence; percent of sucrose octasulfate shift, DMSO zero | calls only at 9.99 µM | 340,000 tested, 1.5% active | AID 651658;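 active means melting point raised past a set limit in the mean and every replicate; three in four hits are not shown here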
Target sequence (Q9HCT0 whole entry, looked up): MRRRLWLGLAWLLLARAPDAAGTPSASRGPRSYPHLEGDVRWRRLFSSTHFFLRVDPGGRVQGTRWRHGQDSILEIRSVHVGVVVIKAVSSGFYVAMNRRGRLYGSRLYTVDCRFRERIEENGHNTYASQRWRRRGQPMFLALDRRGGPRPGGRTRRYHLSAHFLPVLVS
rRNA inh HTS OD600: further read-out of rRNA inh HTS, marked with its call; OD600 change, %; measured here: OD600 growth;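 optical density of the mix in the first replicate; 0 = DMSO median and -100 = no signal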
rRNA inh HTS RFP: also measured in rRNA inh HTS; calls as there; RFP signal change, %; measured here: RFP humanized mutant strains;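 first replicate; 0 = DMSO median and -100 = no signal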
The depositor's hits bear a star; i = inactive; / = not tested or not shown. Some of the compounds tested, so the mix of outcomes need not match the whole.

cpd	mol	rRNA inh HTS OD600	rRNA inh HTS	HNF4A DNA FP	UCH37 inh	Beta2AR agonist	Ecoli growth	FGF22 binding	ALR H2O2 inh	rRNA inh HTS RFP
1	O=C(Nc1ccccc1)/C(=C/c1cccc(Br)c1)NC(=O)c1ccco1	11.6	16.2	0.2	0.2	-5.7	0.694	i	1.7	-1.5
2	Cc1nc2c(cnn2-c2ccccc2)c(=O)[nH]1	4.0	10.0	2.3	-0.1	-5.8	0.698	i	-4.0	-2.4
3	Cc1noc2ncnc(SCc3ccc(C(F)(F)F)cc3)c12	-12.9*	-21.5*	-2.3	5.0	3.2	0.683	i	-11.2	1.8*
4	COc1ccccc1-c1cnc(C(O)c2ccc(F)c(F)c2)[nH]1 (stereo unspecified)	-5.9	6.1	5.3	/	/	/	i	/	3.8
5	O=C1CCN(S(=O)(=O)c2ccc(Cl)cc2)CCN1	-8.1	3.7	-3.1	2.1	1.7	0.648	i	6.1	-2.0
6	c1ccc(N2CCN(c3ncnc4sc5c(c34)CCC5)CC2)cc1	/	/	-0.1	3.4	8.9	0.725	/	43.9	/
7	Cc1ccc(NS(=O)(=O)c2c(C(=O)N3CCCC3)c(C)n(C)c2C)cc1	2.4	-1.7	-2.4	0.1	6.1	0.699	i	-3.7	-0.6
8	COc1ccc(OCC(O)CN2CCN(c3ncccn3)CC2)cc1 (stereo unspecified)	2.1	9.1	0.4	2.8	-1.2	0.619	i	-11.3	-5.5
9	O=C(OC1CCOC1=O)c1ccc(S(=O)(=O)N2CCCCCC2)cc1 (stereo unspecified)	/	/	-4.0	1.8	6.4	0.776	/	2.7	/
10	Cc1ccccc1S(=O)(=O)N(C)C[C@@H]1OCc2cnnn2CCCC(=O)N([C@@H](C)CO)C[C@H]1C	-1.2	0.4	1.7	/	/	/	i	/	4.9
11	COc1cc(C(CCN2CCOCC2)c2c(OC)cc(OC)c3c(C)cc(=O)oc23)cc(OC)c1OC (stereo unspecified)	4.0	3.0	-2.9	-4.6	-6.9	0.69	i	-22.6	14.1
12	COc1ccc(C2(C(=O)c3ccccc3)C(=O)c3ccccc3C2=O)cc1	/	/	-1.5	3.1	13.2	0.629	/	-2.9	/
13	COCCCN1C(=O)/C(=C\c2ccc3c(c2)OCO3)C(C(=O)OC)=C1C	13.7	15.1	-3.2	0.4	-3.2	0.723	i	/	1.5
14	O=C(CCSCCC(=O)Nc1c(F)c(F)c(F)c(F)c1F)Nc1c(F)c(F)c(F)c(F)c1F	/	/	0.6	3.5	3.4	0.655	i	-2.4	/
15	Cn1cnnc1SCC(=O)NCCc1ccccc1	/	/	0.2	-1.0	3.4	0.706	/	20.6	/

From entry 1 up to 11, as listed above:
cpd	mol	rRNA inh HTS OD600	rRNA inh HTS	HNF4A DNA FP	UCH37 inh	Beta2AR agonist	Ecoli growth	FGF22 binding	ALR H2O2 inh	rRNA inh HTS RFP
1	O=C(Nc1ccccc1)/C(=C/c1cccc(Br)c1)NC(=O)c1ccco1	11.6	16.2	0.2	0.2	-5.7	0.694	i	1.7	-1.5
2	Cc1nc2c(cnn2-c2ccccc2)c(=O)[nH]1	4.0	10.0	2.3	-0.1	-5.8	0.698	i	-4.0	-2.4
3	Cc1noc2ncnc(SCc3ccc(C(F)(F)F)cc3)c12	-12.9*	-21.5*	-2.3	5.0	3.2	0.683	i	-11.2	1.8*
4	COc1ccccc1-c1cnc(C(O)c2ccc(F)c(F)c2)[nH]1 (stereo unspecified)	-5.9	6.1	5.3	/	/	/	i	/	3.8
5	O=C1CCN(S(=O)(=O)c2ccc(Cl)cc2)CCN1	-8.1	3.7	-3.1	2.1	1.7	0.648	i	6.1	-2.0
6	c1ccc(N2CCN(c3ncnc4sc5c(c34)CCC5)CC2)cc1	/	/	-0.1	3.4	8.9	0.725	/	43.9	/
7	Cc1ccc(NS(=O)(=O)c2c(C(=O)N3CCCC3)c(C)n(C)c2C)cc1	2.4	-1.7	-2.4	0.1	6.1	0.699	i	-3.7	-0.6
8	COc1ccc(OCC(O)CN2CCN(c3ncccn3)CC2)cc1 (stereo unspecified)	2.1	9.1	0.4	2.8	-1.2	0.619	i	-11.3	-5.5
9	O=C(OC1CCOC1=O)c1ccc(S(=O)(=O)N2CCCCCC2)cc1 (stereo unspecified)	/	/	-4.0	1.8	6.4	0.776	/	2.7	/
10	Cc1ccccc1S(=O)(=O)N(C)C[C@@H]1OCc2cnnn2CCCC(=O)N([C@@H](C)CO)C[C@H]1C	-1.2	0.4	1.7	/	/	/	i	/	4.9
11	COc1cc(C(CCN2CCOCC2)c2c(OC)cc(OC)c3c(C)cc(=O)oc23)cc(OC)c1OC (stereo unspecified)	4.0	3.0	-2.9	-4.6	-6.9	0.69	i	-22.6	14.1

Further compounds follow:
cpd	mol	rRNA inh HTS OD600	rRNA inh HTS	HNF4A DNA FP	UCH37 inh	Beta2AR agonist	Ecoli growth	FGF22 binding	ALR H2O2 inh	rRNA inh HTS RFP
16	CN1C(=O)C2(CCCCC2)C1c1ccccc1 (stereo unspecified)	-18.2	6.2	3.0	3.0	-1.0	0.673	i	/	5.7
17	CC1=C/C(=N\OS(=O)(=O)c2ccccc2)C(C)=CC1=O	-3.2	4.6	-4.3	/	20.4	/	/	98.8*	11.5
18	COC(=O)Nc1ccc(S(=O)(=O)NC2CCS(=O)(=O)C2)cc1 (stereo unspecified)	-5.7	6.3	-2.5	1.7	7.4	0.684	i	-5.1	0.2
19	CCc1ccc2[nH]c3nc(SCC(=O)NNC(=O)c4ccc(C(C)(C)C)cc4)nnc3c2c1	/	/	-1.4	-1.1	5.3	0.749	/	-29.9	/
20	O=C(COC(=O)c1ccccc1C(=O)c1ccccc1)Nc1cccc([N+](=O)[O-])c1	7.4	1.6	1.0	/	2.1	/	i	5.5	2.7
21	Cc1ccc(C23CC4CC(CC(CN)(C4)C2)C3)cc1	-54.0	-24.9	2.1	3.6	17.7	0.653	i	/	30.0
22	O=C(CCc1nnc2ccc(N3CCC4(CC3)OCCO4)nn12)NCc1ccccc1Cl	1.8	2.1	0.6	1.1	1.0	0.727	i	-5.2	-1.8
23	Cc1cc(Br)cn2c(Cc3ccccc3)c(-c3cccc(Br)c3)nc12	-11.4	-6.5	6.5	/	/	/	i	/	-4.5
24	COc1ccc(C(=O)NC(=O)COC(=O)C2COc3ccccc3O2)cc1 (stereo unspecified)	/	/	2.4	5.1	-19.5	0.73	/	10.3	/
25	COC(=O)CSc1ccc2c(N)c(C(=O)OC)sc2c1	/	/	-1.5	-55.6	-2.0	0.665	/	99.5*	/
26	C/C(=N\NC(=O)Cc1ccccc1)c1cccnc1	4.9	8.1	-2.3	/	-17.5	/	i	2.6	0.9
27	COc1ccc(S(=O)(=O)NCc2ccccn2)c(Cl)c1Cl	/	/	1.9	1.4	-5.4	0.732	/	-3.6	/
28	CCCCn1c(C)cc(C)c(S(=O)(=O)c2ccccc2C)c1=O	/	/	2.6	-0.5	4.2	0.677	/	-3.3	/
29	O=C(CC(Cc1ccccc1)C(=O)O)Nc1ccc(F)cc1 (stereo unspecified)	14.8	7.6	0.6	1.9	3.9	0.65	i	-0.3	1.3
30	Oc1ccc(N=Nc2nccs2)c(O)c1	/	/	5.2	24.4*	-2.0	0.608	/	83.1*	/

(further entries)
cpd	mol	rRNA inh HTS OD600	rRNA inh HTS	HNF4A DNA FP	UCH37 inh	Beta2AR agonist	Ecoli growth	FGF22 binding	ALR H2O2 inh	rRNA inh HTS RFP
31	O=c1c2ccccc2ncn1Cc1nc2ccccc2s1	/	/	-5.3	-0.2	-6.2	0.69	/	/	/
32	COCCNC(=O)/C(C#N)=C/c1ccc(C(=O)O)cc1	-1.4	7.9	0.3	/	-10.5	/	i	15.0	-2.4
33	CCOC(=O)c1c(C)c(C(=O)N2CCCCCC2)c(C)n1C	/	/	1.5	2.7	-0.9	0.741	/	-1.5	/
34	Cc1ccsc1C(=O)NNC(=O)COc1ccc(Br)cc1	13.8	5.1	2.9	0.7	-7.1	0.715	/	-3.2	4.4
35	CC(=O)c1cccc(NC(=O)c2cc(-c3ccncc3)nc3ccccc23)c1	-10.1	-9.3	7.2	4.7	9.9	0.695	i	-3.7	0.3
36	Cc1ccc(NC(=O)COc2cccc(/C=C3\SC(=S)N(CCC(=O)O)C3=O)c2)cc1Cl	-1.8	-2.6	-8.0	11.2	9.3	0.717	i	10.2	0.8
37	COc1ccc(NS(=O)(=O)c2ccc(-n3cnnn3)cc2)cc1OC	6.8	9.0	8.9	2.5	-9.2	0.703	i	-30.6	-1.4
38	C=CCOc1ccc(/C=C2\SC(=Nc3cccnc3)NC2=O)cc1	3.9	-1.9	10.8	5.2	4.6	0.628	i	-13.4	6.9
39	Cn1cc([N+](=O)[O-])c(C(=O)Nc2ccc(Br)cn2)n1	/	/	-2.6	-0.7	0.2	0.711	/	-1.2	/
40	CCCCc1ccccc1NC(=S)NC1CCCC1	2.3	0.7	-0.7	5.6	1.4	0.717	i	-11.8	-1.0
41	O=C(Nc1cccc2ccccc12)N1CCCN(c2c(Cl)cncc2Cl)CC1	0.6	8.0	3.6	0.5	18.0	0.654	/	-6.1	5.7
42	Cc1nn(C)c(C)c1S(=O)(=O)N(CC(=O)N1CCc2ccccc21)c1ccc(C(C)C)cc1	1.7	1.8	2.5	4.8	-6.0	0.732	i	-3.3	-0.3
43	O=C(Nc1cccc(Cl)c1)Nc1sccc1-c1nc2ccccc2s1	/	/	10.0	/	66.4*	/	i	17.2	/
44	O=S(=O)(c1ccccc1)N1CCC(O)(CSc2ccccc2)CC1	-30.7	-25.0	6.5	1.4	-5.2	0.683	i	-0.5	-0.1
45	O=C(CSc1nnc(CNC(=O)c2ccccc2F)o1)c1ccccc1	/	/	0.5	0.6	-3.4	0.713	/	67.5	/

(more compounds)
cpd	mol	rRNA inh HTS OD600	rRNA inh HTS	HNF4A DNA FP	UCH37 inh	Beta2AR agonist	Ecoli growth	FGF22 binding	ALR H2O2 inh	rRNA inh HTS RFP
46	Cc1cc2ncn(C(=O)c3ccc4c(c3)OCO4)c2cc1C	/	/	-0.7	0.5	-9.4	0.718	/	-14.2	/
47	COC(=O)c1cc(C(=O)OCC(=O)NCc2ccc3c(c2)OCO3)cc([N+](=O)[O-])c1	2.0	15.2	-0.5	3.0	-1.2	0.677	i	-7.0	2.6
48	CC1CC(C)CN(c2nc3c(c(=O)n(C)c(=O)n3C)n2CCSc2nc3ccccc3o2)C1 (stereo unspecified)	/	/	2.1	2.5	-14.9	0.79	i	/	/
49	Cc1cc(Br)cn2c(Cc3ccsc3)c(-c3cccc(Cl)c3)nc12	4.8	-3.7	-3.7	/	/	/	i	/	7.5
50	CCCC(=O)N1CCC(O)(c2cccc(F)c2)CC1	4.4	11.7	-2.2	1.0	0.4	0.676	i	4.2	-1.8
51	COc1ccc(OC)c(CN2C(=O)c3ccccc3C2c2nnnn2-c2c(C)cccc2C)c1 (stereo unspecified)	-1.8	-11.2	-3.4	/	/	/	i	/	-3.5
52	COc1nccc(C(F)(F)F)c1C(=O)NC(=O)Nc1ccccc1	-17.1	-0.7	2.7	3.6	-2.5	0.637	i	/	-4.0
53	CN(C)S(=O)(=O)N1CCc2ccccc2C1	/	/	1.5	0.9	-4.7	0.643	/	-1.5	/
54	O=C(CN1C(=O)NC2(CCCCCC2)C1=O)Nc1ccc2c(c1)CCC2	-32.4	-22.1	-1.7	/	-4.3	/	i	0.8	-0.8
55	CC(C)N(C(=O)Cn1cc(SCC(N)=O)c2ccccc21)C(C)C	-7.7	-2.0	0.7	-1.0	0.1	0.723	i	64.2	-7.6
56	Cc1nn(C)c(C)c1NC(=O)CN1CCC(O)(c2ccc3c(c2)OCO3)CC1	/	/	-0.2	0.5	3.3	0.699	/	-13.1	/
57	COc1ccccc1Cn1c(=O)oc2ccccc21	-4.4	-2.7	-1.4	/	/	/	i	/	-2.0
